KCNQ2 enhance: enhances the rat KCNQ2 potassium channel; CHO-K1 KCNQ2, FluxOR thallium flux fluorescence; active compounds read high; O88943; B-score at 10 µM; hit rate 0.54% among 310,000;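 active means fluorescence ratio B-score at least 3 SD of library B-scores, with initial fluorescence B-score within 3 SD, cut at about 5.3 in these data; same plate scores as AID 2156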;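 further: B-score of peak minus minimum over baseline fluorescence ratio after K+ and Tl+ stimulus; positive B-score means potentiation of KCNQ2 with more thallium influx and brighter signal; only the inactives scoring about 0 or higher are listed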
Target sequence (O88943 whole entry, looked up): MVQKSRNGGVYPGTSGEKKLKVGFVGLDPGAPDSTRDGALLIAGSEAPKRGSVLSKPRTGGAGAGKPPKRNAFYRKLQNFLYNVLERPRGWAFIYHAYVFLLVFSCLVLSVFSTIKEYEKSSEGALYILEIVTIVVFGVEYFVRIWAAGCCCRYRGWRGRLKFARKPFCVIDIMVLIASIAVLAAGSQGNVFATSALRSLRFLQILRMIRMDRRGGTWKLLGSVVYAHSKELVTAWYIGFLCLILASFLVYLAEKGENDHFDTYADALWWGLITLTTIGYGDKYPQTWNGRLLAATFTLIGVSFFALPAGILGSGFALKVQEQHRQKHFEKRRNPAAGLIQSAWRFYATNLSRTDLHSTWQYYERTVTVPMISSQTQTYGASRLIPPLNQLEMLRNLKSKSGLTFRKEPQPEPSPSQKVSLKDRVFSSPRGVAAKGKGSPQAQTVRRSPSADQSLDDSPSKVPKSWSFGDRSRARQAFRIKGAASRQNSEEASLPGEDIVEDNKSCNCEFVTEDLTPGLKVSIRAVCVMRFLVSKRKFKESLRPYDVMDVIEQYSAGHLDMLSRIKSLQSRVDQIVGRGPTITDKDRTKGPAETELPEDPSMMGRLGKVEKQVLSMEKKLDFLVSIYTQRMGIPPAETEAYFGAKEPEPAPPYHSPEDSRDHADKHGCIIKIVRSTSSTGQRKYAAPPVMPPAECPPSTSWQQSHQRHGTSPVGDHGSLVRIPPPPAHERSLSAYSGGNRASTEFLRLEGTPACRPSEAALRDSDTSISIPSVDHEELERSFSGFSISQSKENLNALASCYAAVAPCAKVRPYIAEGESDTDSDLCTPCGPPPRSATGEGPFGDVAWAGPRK
KCNQ2 enhance baseline: further read-out of KCNQ2 enhance, marked with its call; B-score; compound at 10 µM; measured here: initial fluorescence intensity artifact check;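 brightness before thallium and not channel activity; 0 = typical well and far values either way flag optical interference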
* = called active by the depositor; & = joins results of further samples. This is a subset; count on the stated rates, not on these rows.

SMILES	KCNQ2 enhance	KCNQ2 enhance baseline
Brc1ccc(CSc2nnc3ccccn23)cc1	0.74	2.65
Cc1nnc(NCCO)c2ccccc12	1.03	-0.12
COc1ccc(CCNC2CCc3ccccc3C2)cc1 (centres undefined)	2.77	-2.48
COc1ccc(CN2C(=O)CC(Cc3ccc(C)cc3)C2=O)cc1OC (centres undefined)	0.15	1.57
CCOC(=O)c1sc(NC(=O)c2ccc(S(=O)(=O)N3CCCCCC3)cc2)nc1-c1ccccc1	1.19	-0.05
CCCN1C(=O)C2(OCCO2)c2cc(Cl)ccc21	0.02	-1
Cc1ccc(NC(=O)Nc2cccs2)c(Cl)c1	2.32	0.07
Nc1ccc(N(CCO)CCO)cc1	0.66	0.22
CCC1(CC)N=C(c2ccccc2)C(=S)N1	0.51	-0.01
Cc1ccc(S(=O)(=O)Nc2ccccc2C(=O)N2CCN(C)CC2)cc1	0.55	-1.09
CCCCn1c(N)c(N(CC(C)C)C(=O)CCC2CCCCC2)c(=O)[nH]c1=O	0.83	3.93
C=CCNC(=O)c1scc2c1CCCC2	1.67	-1.71
Cc1cc(S(=O)(=O)Nc2ccc(C(=O)NCc3ccncc3)cc2)ccc1F	1.03	-1.42
COc1ccc(NC(=O)CSc2nnc(-c3ccncc3)o2)c([N+](=O)[O-])c1	0.24	0.29
COc1ccc2nc(COC(=O)c3ccco3)c(C(C)=O)[n+]([O-])c2c1	0.3	1.15
CCCCN(CC)CCNC(=O)C1CCN(S(=O)(=O)c2cccc3nsnc23)CC1	0.75	-2.86
COc1ccc(C2C=C(C)Nc3ncnn32)cc1 (centres undefined)	1.05	1.16
CC(=O)NC(Cc1ccc(O)cc1)C(=O)NN (centres undefined)	0.52	0.56
O=C(Nc1ccc2c(c1)C(=O)NC2=O)c1ccccc1Cl	0.06	-0.13
O=C1Nc2ccccc2OCc2c1cccc2[N+](=O)[O-]	2.06	0.1
CCOc1ccc(C(=O)N2CCN(c3ccccn3)CC2)cc1OCC	0.01	0.66
CC(=O)N1CCc2c(sc(NC(=O)c3cccc(N4C(=O)CCC4=O)c3)c2C(N)=O)C1	0.37	0.19
C#CC(CC)(CC)NC(=O)Nc1ccccc1C(=O)OC	0.5	-0.01
CCN(CC)C(=O)CCc1nc2sc3c(c2c(=O)[nH]1)CCCC3	0.54	1.65
Cc1ccc2ccc3ccc(C)nc3c2n1	0.06	0.12
O=C(CSc1nnc(SCc2ccccc2)s1)N/N=C/c1ccc(Cl)cc1Cl	1.25	-0.56
Cc1ccccc1NC(=O)NCc1ccco1	1.62	-0.2
O=C1NCCCC1C(=O)N/N=C/c1ccccc1[N+](=O)[O-] (centres undefined)	0.97	0.1
COc1ccc(Cn2ccc(=O)c(Cc3c(Cl)cccc3Cl)c2C)cc1	0.13	0.21
COc1cc(OC)cc(C(=O)NN2CCCCC2)c1	0.76	-1.23
CC(=O)NC1=NN(C(C)=O)C(C)(c2ccc(Cl)s2)S1 (centres undefined)	0.37	-2.66
COc1ccccc1-c1nc(-c2ccccn2)no1	0.12	2.46
O=C1CCN(Cc2ccccc2)C(=O)N1c1ccccc1	1.29	1.18
CC(=O)c1cccc(CN2CCC(C(=O)Nc3ccc(-c4cccc(C)c4)cc3)CC2)c1	0.01	-0.98
COc1cccc(Cl)c1NC(=O)N1CCc2c([nH]c3ccccc23)C1C(F)(F)F (centres undefined)	0.3	0.78
O=C(NC1CCCc2c1cnn2-c1ccccc1F)c1ccccc1N1CCOCC1 (centres undefined)	0.37	-0.62
Cc1cc(NN)nc(NS(=O)(=O)c2ccc(Cl)cc2)n1	0.42	-2.74
COc1cc(Cl)c(S(=O)(=O)N2CCOCC2)cc1Cl	0.63	-0.01
CC(=O)CC(c1ccccc1)c1c(O)c2ccccc2oc1=O (centres undefined)	0.36&1.54&1.51	-0.04&-1.26&-0.46
O=C(CSc1ncc(-c2ccccc2)n1CC1CCCO1)N1CCCCC1 (centres undefined)	0.17	-2.13
CN(CC(=O)Nc1ccccc1C(F)(F)F)C(=O)Cn1c(=O)oc2ccccc21	1.34	-0.56
O=C(Cc1ccc2c(c1)OCCO2)N1CCN(S(=O)(=O)c2cccc(C(F)(F)F)c2)CC1	2.21	-1.26
O=C1CNC(=O)/C1=C/c1ccc(O)cc1	3.25	2.29
Cc1ccc(/C=N/Nc2ccc(Cl)c(C(=O)O)c2)s1	0.34	-0.33
CC1CCCCC1NC(=O)Cn1nnc2ccccc2c1=O (centres undefined)	0.41	-0.1
CC(=O)C1=C(O)C(=O)N(c2ccc(C)cc2)C1c1ccc([N+](=O)[O-])cc1 (centres undefined)	0.45	-0.89
Cc1ccc(C(=O)Nc2cc(C(C)C)c(O)c(C(C)C)c2)cc1	1.7	0.47
CC(=O)Nc1ccccc1C(=O)C(=O)Nc1cccc(C(=O)N2CC(C)CC(C)C2)c1 (centres undefined)	1.3	-0.02
CC(NC(=O)C(=S)N1CCN(C)CC1)c1ccccc1 (centres undefined)	0.02	-1.48
CC1=C(C(=O)Nc2ccccc2)C(c2cccnc2)n2nc(-c3cccnc3)nc2N1 (centres undefined)	0.35	-0.64
Cc1ccc(S(=O)(=O)N2CCN(C(=O)Cc3ccsc3)CC2)c(C)c1	0.48	2.52
Cc1cc(C)cc(NC(=O)C2CCCN2S(=O)(=O)c2ccc3c(c2)C(C)(C)C(=O)N3C)c1 (centres undefined)	0.17	0
COc1ccc(/C=C/C(O)=C(\C#N)c2nnc(N3CCOCC3)n2-c2ccccc2)cc1OC	1.01	0.05
CN(c1ccccc1)S(=O)(=O)c1cccc(NC(=O)CSc2ncc(C(F)(F)F)cc2Cl)c1	9.74*	-1.74*
CC(=O)N1c2ccccc2NC2=C(C(=O)CCC2)C1c1ccc(F)cc1 (centres undefined)	0.05	-0.23
O=C(c1ccc(F)cc1)N1CCOCC1	2.92	0.36
COc1ccc(N(CC(=O)Nc2cc(C)ccc2C)S(=O)(=O)c2c(C)nn(C)c2C)cc1	1.05	-0.34
COC(CC(=O)NNC(=S)Nc1ccccc1)OC	0.25	-0.03
CNCC(O)COc1ccccc1 (centres undefined)	2.87	-0.03
CC(C)(O)[C@@H]1Cc2c(ccc3ccc(=O)oc23)O1	0.9	1.53

Structures listed so far that contain a nitro group on carbon:
SMILES	KCNQ2 enhance	KCNQ2 enhance baseline
COc1ccc(NC(=O)CSc2nnc(-c3ccncc3)o2)c([N+](=O)[O-])c1	0.24	0.29
O=C1Nc2ccccc2OCc2c1cccc2[N+](=O)[O-]	2.06	0.1
O=C1NCCCC1C(=O)N/N=C/c1ccccc1[N+](=O)[O-] (centres undefined)	0.97	0.1
CC(=O)C1=C(O)C(=O)N(c2ccc(C)cc2)C1c1ccc([N+](=O)[O-])cc1 (centres undefined)	0.45	-0.89

More compounds:
SMILES	KCNQ2 enhance	KCNQ2 enhance baseline
CC1CC(C(=O)Nc2ccccc2)C(=O)O1 (centres undefined)	0.69	0.33
CO/N=C/NC(=O)C1=NOC(CNc2ncc(C(F)(F)F)cc2Cl)C1 (centres undefined)	2.16	1.62
CCOc1cc(C(=O)N2CCCN(C)CC2)cc(OCC)c1OCC	1.09	0.45
Cc1c(NC(=O)C(C)OC(=O)CCC2CCCC2)c(=O)n(-c2ccccc2)n1C (centres undefined)	2.95	0.86
COc1ccccc1OCCC(=O)OCC(=O)Nc1cccc(Br)c1	0.27	-0.13
O=C(Nn1cnc2ccccc2c1=O)c1ccc(Cl)c([N+](=O)[O-])c1	0.61	-0.2
COc1ccccc1C(=O)NC(=O)COC(=O)c1nc(Cl)ccc1Cl	0.44	0.83
Cc1cc(=O)n2c3ccccc3n(CC(O)CN3CCCC3)c2c1C#N (centres undefined)	1.76	-1.31
Cc1cc(C)c(NC(=O)CS(=O)CC(=O)N2CCN(c3ccccc3)CC2)c(C)c1 (centres undefined)	0.13	0.16
COc1ccc(OC2OC3COC(c4ccco4)OC3C(O)C2NC(C)=O)cc1 (centres undefined)	0.08	-1.3
O=C(CN1CCN(c2ccccc2)CC1)Nc1ccccc1C(F)(F)F	0.94	-0.73
Cc1ccc(Cn2c(O)c(N=NC(=S)Nc3ccccc3F)c3ccccc32)cc1	2.3	-0.51
O=[N+]([O-])c1cc([N+](=O)[O-])c(N2CCCCCC2)cc1NCCO	3.55	-1.65
CCOC(=O)N1CCC(N2CCN(C3CCCC3)C(CCO)C2)CC1 (centres undefined)	0.1	0.8
Cc1ncoc1C(=O)Nc1cccc(Cl)c1	0.55	0.65
CCN(CC)c1nc(N2CCOCC2)nc2ccccc12	0.56	2.1
Cc1cccc(-c2nc3ccccc3c(=O)n2N)c1	1.79	-0.08
Cc1ccc(Cn2ccsc2=NC(=O)CCl)cc1	1.44	0.11
O=C(Nc1ccccn1)c1c(O)c2cccc3c2n(c1=O)CCC3	0.5	-1.73
Cc1ccc(S(=O)(=O)NN2C(=O)c3ccccc3NC2C)cc1 (centres undefined)	0.63	0.07

Sorted by SMILES length (high to low): part of the list above
SMILES	KCNQ2 enhance	KCNQ2 enhance baseline
O=[N+]([O-])c1cc([N+](=O)[O-])c(N2CCCCCC2)cc1NCCO	3.55	-1.65
O=C(Nn1cnc2ccccc2c1=O)c1ccc(Cl)c([N+](=O)[O-])c1	0.61	-0.2
Cc1cc(=O)n2c3ccccc3n(CC(O)CN3CCCC3)c2c1C#N (centres undefined)	1.76	-1.31

Given with two lines to a compound: five of the compounds above
Each structure is followed by: KCNQ2 enhance | KCNQ2 enhance baseline
Cc1cc(=O)n2c3ccccc3n(CC(O)CN3CCCC3)c2c1C#N (centres undefined)
→ 1.76 | -1.31
Cc1cc(C)c(NC(=O)CS(=O)CC(=O)N2CCN(c3ccccc3)CC2)c(C)c1 (centres undefined)
→ 0.13 | 0.16
COc1ccc(OC2OC3COC(c4ccco4)OC3C(O)C2NC(C)=O)cc1 (centres undefined)
→ 0.08 | -1.3
O=C(CN1CCN(c2ccccc2)CC1)Nc1ccccc1C(F)(F)F
→ 0.94 | -0.73
Cc1ccc(Cn2c(O)c(N=NC(=S)Nc3ccccc3F)c3ccccc32)cc1
→ 2.3 | -0.51

(cont.)
SMILES	KCNQ2 enhance	KCNQ2 enhance baseline
Nc1nc(CSc2nc3ccccc3s2)nc(Nc2ccccc2)n1	1.48	-0.38
COc1ccccc1N1CCN(S(=O)(=O)CC23CCC(CC2=O)C3(C)C)CC1 (centres undefined)	0.46	0.52
CCC(CC)NC(=O)CO/N=C/c1ccc(Cl)cc1Cl	1	-0.68
O=C(CSC1=NC(=O)C(Cc2ccccc2)C(=O)N1)Nc1ncccn1 (centres undefined)	0.16	0.76
Cc1ccc(-n2c(C)cc(C(=O)CN3CCOCC3)c2C)cc1	0.72	0.69
Cc1ccc(NC(=O)CSc2nc(O)cc(=O)n2C)cc1	0.63	-0.19
O=C(CSc1nnc(C2CC2)n1CC1CCCO1)Nc1ccccc1Cl (centres undefined)	0.89	3.54
Cc1nn(-c2ccc(C(=O)OC(C)C)cc2)c(C)c1[N+](=O)[O-]	0.23	-0.55
Cc1nnc(SCC(=O)N2CCc3ccccc32)s1	2.44	-0.86
CC(C)(C)C(=O)CSc1nc2ncc(Br)cc2[nH]1	0.51	0.66
O=C(NCc1ccco1)c1cc(C(=O)C2CCCCC2)c[nH]1	0.13	0.17
COc1cccc(N2CCN(c3ccc4nnc(CCC(=O)N5CCN(C)CC5)n4n3)CC2)c1	0.57	0.17
COCCNC(=O)COc1ccccc1Cl	1.49	-0.64
N#CCCN1CCN(Cc2ccccc2)CCC1=O	0.89	1.01
CC(C)CC(c1nnnn1Cc1ccccc1)N1CCC(C(N)=O)CC1 (centres undefined)	0.11	-1.29
COc1ccc(Nc2nc(N)c3ccccc3n2)c(OC)c1	0.08	0.36
COc1ccc(C)cc1-n1nnnc1SCc1cn2ccsc2n1	1.03	1.08
CCC1CCc2sc(C(=O)N(C)CC(=O)Nc3ccc(N4CCOCC4)cc3)cc2C1 (centres undefined)	0.07	1.4
CCOC(=O)C1=C(c2ccccc2)N2CCS(=O)(=O)N=C2S1	1.6	-1.95
Cc1ccc(NC(=O)CSc2ccccn2)cc1S(=O)(=O)N1CCOCC1	0.04	-0.8
Cc1ccc(C(=O)CSc2ccc(-c3cccnc3)nn2)cc1	0.22	-1.42
CCCN1C(=O)c2ccccc2NC1c1ccc(OC)cc1OC (centres undefined)	0.19	-0.15
CCOC(=O)c1c(N2C(=O)Nc3ccccc3N2O)n[nH]c1-c1cccc(Cl)c1	10.2*	-1.11*
COc1cccc(NC(=O)c2cccc(S(=O)(=O)N3CCN(Cc4ccccc4)CC3)c2)c1	0.68	0
COc1ccc(CCn2c(C)cc(C(=O)COC(=O)c3ccc(NC(=O)CC#N)cc3)c2C)cc1	0.47	-1.98
Cc1cc(NC(=O)C2CCN(C(=O)c3ccco3)CC2)ccc1Br	3.1	0.72
CCN(CC)C(=O)Cc1cc(C(=O)O)c2ccccc2n1	0.07	2.21
CN(C)C(=O)N1CCC(C(=O)NCC2CCCO2)CC1 (centres undefined)	0.9	1.86
COCCN(C(=O)COC(=O)c1cc(C)n(-c2ccccc2)c1C)c1c(N)n(Cc2ccccc2)c(=O)[nH]c1=O	0.71	-0.13
O=C(O)c1ccc(N/N=C/C=C/c2ccccc2[N+](=O)[O-])cc1	0.72	-2.06
O=[N+]([O-])c1cccc(-c2nnc3cccc(Cl)n23)c1	0.99	0.18
CCN1C(=O)c2cccc3c(N)ccc1c23	0.1	-1.9
CCCN1CC(=O)N2C(c3cccc(OC)c3OC)c3[nH]c4ccccc4c3C[C@H]2C1=O (some centres undefined)	0.19	-1
COc1ccc(CNC2CCN(Cc3ccccc3)CC2)cc1	1.85	-1.91
Cc1sc2ncn(CC(=O)NCCCC(=O)N3CCN(c4ccccc4F)CC3)c(=O)c2c1C	0.01	-0.16
COCCn1c(=NC(=O)c2nc3ccccc3s2)sc2cc(S(C)(=O)=O)ccc21	1.53	1.59
CC(C)(CO)CN1CCC(n2nccc2NC(=O)C2CCCC2)CC1	0.85	-1.13
S=c1nc2ccccc2c2nc(-c3ccccc3Br)[nH]n12	1.15	1.03

Compound activity: PubChem BioAssay, Johns Hopkins Ion Channel Center
